Compound activity from PubChem.
FGF22 binding: FGF22 (human) thermal shift binding | recombinant FGF22 thermal shift, SYPRO orange fluorescence; percent of sucrose octasulfate shift, DMSO zero | calls only at 9.99 µM | 340,000 tested, 1.5% active | AID 651658;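 active means melting point raised past a set limit in the mean and every replicate; inconclusive means no clear call; three in four hits are not shown here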
Target sequence (Q9HCT0 whole entry, looked up): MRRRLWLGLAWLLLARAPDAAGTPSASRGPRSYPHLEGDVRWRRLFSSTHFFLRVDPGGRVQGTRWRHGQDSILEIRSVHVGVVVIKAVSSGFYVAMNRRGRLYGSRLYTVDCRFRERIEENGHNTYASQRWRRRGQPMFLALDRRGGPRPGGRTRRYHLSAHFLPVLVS
Vif A3G: HIV-1 Vif–A3G interaction blockers – biochemical, TR-FRET, GST-Vif 1-94, biotin-A3G peptide, dose response retest, primary screen (AID 1117319). 260,000 tested, 0.57% active. inhibition, %, or IC50 in µM where a hit was titrated. TR-FRET GST-Vif / biotin-A3G peptide binding; higher % means a stronger effect; test concentration not given here; strong numbers were not always called active;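 active means above the screen mean plus three standard deviations and confirmed in dose response; inconclusive means results disagree or hit not tested in dose response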;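 further: Vif residues 1-94 fused to GST binding biotinylated APOBEC3G peptide 110-148; 0% = full assay without inhibitor and 100% = GST in place of GST-Vif; retest series ran down from 100 µM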
AF4-AF9 inh: inhibitors of human MLL-AF4/AF9 interaction | AID 651704 | inhibition, % at 10 µM | P42568 | 350,000 tested, 0.47% active | AlphaScreen, biotin-AF4 peptide binding to FLAG-AF9;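 active means every replicate reaching a set inhibition limit, whatever the replicate mean, cut at about 25% in these data; inconclusive means mean inhibition reaches that limit but some replicates miss it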;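 further: 0% = plate neutral control median and 100% = total signal loss; the record names both 10 and 1 µM as test concentration; the first replicate is given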
Ecoli growth: E. coli growth inhibition | Escherichia coli growth, OD600, 23 h; active compounds read low | OD600 absorbance (concentration not given with the values) | 330,000 tested, 0.21% active | AID 1053175;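 active means OD600 absorbance below the run mean of sample wells minus 3.6 SD, in any replicate, cut at about 0.56 in these data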;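 further: stock transfer was 300 nL into about 60 µL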
ALR inh: human ALR oxidase inhibition via reduced H2O2; 290,000 tested, 3.8% active; P55789; purified ALR, DTT oxidation, H2O2 HRP-luminol luminescence; inhibition, % (test concentration not listed);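 active means mean and each replicate at 75% or more; inconclusive means only one of the two met; inactive means neither met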;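 further: stock transfer was 7.5 nL into about 7.5 µL; 0% = neutral wells and 100% = wells with inactivated enzyme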
Target sequence (P55789 whole entry, looked up): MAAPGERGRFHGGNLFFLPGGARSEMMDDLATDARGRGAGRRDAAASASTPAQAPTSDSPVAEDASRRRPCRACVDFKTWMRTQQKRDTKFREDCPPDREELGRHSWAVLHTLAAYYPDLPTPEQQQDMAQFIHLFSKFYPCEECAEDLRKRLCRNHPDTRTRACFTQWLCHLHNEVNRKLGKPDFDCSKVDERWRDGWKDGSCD
rRNA inh HTS: inhibits bacterial ribosomal RNA function over humanized ribosomes; E. coli WT GFP vs humanized-ribosome RFP mutants, fluorescence, 24 h; active compounds read low; DMSO median 0, no signal -100; GFP signal change (wild-type ribosome), % (no concentration beside the values); 350,000 tested, 1.6% active; AID 720706;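 active means significant combined selectivity score with lowered wild-type GFP, culture density cut under 30%, mutant RFP and density less affected; inactive means any of these conditions unmet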; further: one replicate is shown; some compounds called inactive have numbers as strong as hits
HNF4A DNA FP: change in binding of human HNF4 alpha to DNA; P41235; HNF4a-FITC DNA binding, fluorescence polarization, 1 h; activity change, % at 10 µM; 360,000 tested, 0.3% active; AID 1224865; in the data active means activity change above about 30%, passing the limit was not always enough;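 further: controls were the assay level and a saturating level of protein; the project sought stronger binding though the title names inhibitors; some compounds called inactive have numbers as strong as hits; positive values seem to mean higher polarization but the record does not say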
Target sequence (P41235 whole entry, looked up): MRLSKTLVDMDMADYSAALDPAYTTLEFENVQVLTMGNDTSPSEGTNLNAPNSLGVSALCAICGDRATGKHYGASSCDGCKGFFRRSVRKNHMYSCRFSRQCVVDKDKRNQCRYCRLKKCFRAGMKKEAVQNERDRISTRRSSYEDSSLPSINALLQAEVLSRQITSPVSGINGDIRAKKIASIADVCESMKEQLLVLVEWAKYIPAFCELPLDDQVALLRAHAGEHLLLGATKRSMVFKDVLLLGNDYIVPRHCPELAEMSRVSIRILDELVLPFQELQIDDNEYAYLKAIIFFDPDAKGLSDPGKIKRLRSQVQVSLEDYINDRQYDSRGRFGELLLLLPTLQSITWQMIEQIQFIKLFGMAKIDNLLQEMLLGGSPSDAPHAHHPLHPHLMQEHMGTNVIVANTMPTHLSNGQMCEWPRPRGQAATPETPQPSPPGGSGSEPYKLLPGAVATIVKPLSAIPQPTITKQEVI
rRNA inh HTS OD600: also measured in rRNA inh HTS; calls as there; OD600 change, %; measured here: OD600 growth;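 optical density of the mix in the first replicate; 0 = DMSO median and -100 = no signal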
rRNA inh HTS RFP: further read-out of rRNA inh HTS, marked with its call; RFP signal change, %; measured here: RFP humanized mutant strains;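 first replicate; 0 = DMSO median and -100 = no signal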
* = called active by the depositor; i = inactive; ? = inconclusive; nt = no result given; & = joins results of further samples. Some of the compounds tested; count on the stated rates, not on these rows.

SMILES | FGF22 binding | Vif A3G | AF4-AF9 inh | Ecoli growth | ALR inh | rRNA inh HTS | rRNA inh HTS OD600 | rRNA inh HTS RFP | HNF4A DNA FP
CCOC(=O)c1c(NC(=O)CN(CC)CC)sc2c1CCC2 | i | 3% | 1.1 | 0.67 | 2 | -18 | -14 | -4.1 | -0.4
O=C(c1ccc(F)cc1)N1[C@@H]2CNc3ccccc3[C@@H]2[C@@H]1CO | i | nt | 1.1 | nt | nt | 3 | 3 | -0.9 | nt
COC(=O)c1ccc(NC(=O)c2ccccc2NS(C)(=O)=O)cc1 | nt | 31% | nt | 0.67 | 0 | nt | nt | nt | -1.5
CCOCCCNC(=S)N1CCCN(c2nc3cc(C)ccc3cc2C#N)CC1 | i | nt | -1.5 | 0.66 | -5 | 15 | 12 | -0.1 | 2.2
Cc1ccc(C)c(NC(=S)N(C)CCO)c1 | i | ? | -1.7 | 0.71 | -15 | 13 | 1 | -0.7 | -3.7
CO[C@H]1CN(C)C(=O)c2cc(NC(=O)C3CC3)ccc2OC[C@@H](C)N(CC2CC2)C[C@@H]1C | i | nt | -1.0 | nt | nt | 5 | 3 | 0.6 | nt
COC(=O)c1sc(N)nc1C(C)(C)C | nt | -2% | nt | 0.75 | 1 | nt | nt | nt | -0.3
Cc1cccc(NC(=O)CCCCCN2C(=O)[C@@H]3Cc4ccccc4CN3C2=O)c1 | i | nt | -1.7 | 0.63 | -6 | -5 | -18 | -1.5 | 0.9
Cc1ccccc1NC(=O)CSc1nnc(Cc2ccccc2)c(=O)n1N | i | -1% | -5.3 | 0.68 | 0 | 2 | -1 | -0.3 | 1.6
COc1cc(/C=C/C(=O)N2CCN(C(=O)/C=C/c3cc(OC)c(OC)c(OC)c3)CC2)cc(OC)c1OC | nt | nt | nt | 0.68 | -4 | nt | nt | nt | 1.2
CC(C)(C)OC(=O)N1CCC[C@@H]1C(=O)N1CCC[C@@H]1C(=O)NCc1ccccc1Cl | i | nt | -3.8 | nt | nt | -1 | -10 | 2.2 | 4.3
COCC#Cc1cnc2c(c1)C(=O)N([C@H](C)CO)C[C@@H](C)[C@@H](CN(C)Cc1ccc(F)cc1)O2 | i | nt | -3.0 | nt | nt | 2 | 4 | -1.4 | nt
CC(CCc1ccccc1)NC(=O)COc1ccc(S(=O)(=O)N2CCOCC2)cc1[N+](=O)[O-] (configuration not stated) | i | nt | 8.3 | 0.67 | 43 | -2 | -14 | -4.3 | -1.4
COc1ccc(/C=N/Nc2nc3ccccc3o2)cc1OC | i | -8% | 2.2 | nt | -13 | 12 | 0 | 0.3 | 2.9
CC(C)=CCN1CCN(Cc2ccoc2)CC1CCO (configuration not stated) | i | nt | -0.1 | 0.7 | -76 | 16 | 17 | -0.9 | 3.0
CCOC(=O)C1=C(CN2CCc3ccccc32)NC(=O)NC1c1ccc(Cl)cc1 (configuration not stated) | nt | 7% | nt | 0.62 | -3 | nt | nt | nt | 5.1
O=C(CN1C(=O)c2ccccc2C1=O)Nc1cccc2cccnc12 | i | -11% | -0.7 | 0.7 | -6 | 3 | 15 | 2.3 | 1.4
CCC(=O)Nc1ccc(/C(C)=N\NC(=O)c2ccc(C)s2)cc1 | nt | 14% | nt | nt | 3 | nt | nt | nt | 1.5
O=C(c1cc2ccccn2n1)N1CCN(Cc2ccccc2)CC1 | i | -2% | -1.9 | 0.77 | 1 | 1 | 11 | 1.5 | 3.4
O=C(N[C@@H]1CC[C@@H](CCNS(=O)(=O)c2ccccc2Cl)O[C@H]1CO)c1ccccc1 | i | nt | -1.0 | nt | nt | 3 | 6 | -1.0 | nt
C[C@@H]1CN([C@H](C)CO)C(=O)c2cccc(NC(=O)c3ccc(-c4nccs4)cc3)c2O[C@H]1CN(C)S(=O)(=O)c1ccccc1 | i | nt | 0.8 | nt | nt | -9 | -13 | -1.4 | nt
COc1ccc(-n2nc(C(=O)NCC(=O)Nc3cccc(NC(C)=O)c3)c3ccccc3c2=O)cc1 | i | 3% | 0.5 | 0.57* | 0 | -2 | -5 | 5.0 | -1.4
COc1ccc(N2CCN(c3ccc([N+](=O)[O-])nc3)CC2)cc1 | i | ? | 1.2 | 0.69 | -1 | 3 | 2 | 0.6 | -5.2
c1ccc(NCc2nc3ccccc3n2CCOc2ccccc2)cc1 | nt | nt | nt | 0.71 | ? | nt | nt | nt | 0.1
CCN(Cc1ccc(OC)c(F)c1)C(=O)c1cc2ccccc2o1 | i | 2% | -1.4 | 0.58 | -4 | -23 | -39 | 0.2 | 1.2

The listing continues:
SMILES | FGF22 binding | Vif A3G | AF4-AF9 inh | Ecoli growth | ALR inh | rRNA inh HTS | rRNA inh HTS OD600 | rRNA inh HTS RFP | HNF4A DNA FP
Cc1ccc2c(C)c(C(=O)N3CCN(c4ncccn4)CC3)oc2c1C | i | nt | -2.2 | 0.63 | nt | -18 | -29 | 1.5 | 2.5
C[C@H](CO)N1C[C@H](C)[C@H](CN(C)C(=O)Nc2ccc(F)cc2)Oc2ccc(NS(=O)(=O)c3ccc(Cl)cc3)cc2C1=O | i | nt | 0.1 | nt | nt | -3 | -1 | -1.3 | nt
CC(=O)Nc1ccc(NC(=O)c2cc(=O)c3ccccc3o2)cc1 | i | nt | 0.0 | 0.69 | -28 | -9 | 2 | -3.4 | 4.0
CC1(C)Cc2c(C#N)c(SCC(=O)O)nc(N3CCOCC3)c2CO1 | nt | nt | 5.1 | 0.71 | -4 | 5 | 9 | -0.5 | 2.6
CCOc1ccc(N=C2NC(=O)C(CC(=O)Nc3ccc(OC)cc3)S2)cc1 (configuration not stated) | i | -2% | -0.4 | 0.72 | -9 | 7 | 7 | 0.1 | -1.6
COc1ccc(NC(=O)c2cc(C3CCCCN3C(=O)c3ccc(NC(C)=O)cc3)on2)c(C)c1 (configuration not stated) | i | nt | 0.0 | nt | nt | 4 | 6 | 4.2 | -0.3
O=C(/C=C\c1cn(-c2ccccc2)nc1-c1ccc2c(c1)OCCO2)N1CCOCC1 | nt | -9% | nt | 0.72 | -2 | nt | nt | nt | 0.8
NC(=O)Nc1ccccc1C(=O)N1CCC(O)(c2ccc(Cl)cc2)CC1 | nt | 21% | nt | 0.65 | nt | nt | nt | nt | -1.6
Cc1cc(C)nc(N2CCC(C(=O)NC3CCCCCC3)CC2)n1 | nt | -3% | nt | 0.75 | -10 | nt | nt | nt | -0.8
CN(C)CC(=O)Nc1ccc2c(c1)[C@@H]1C[C@@H](CC(=O)NCc3ccncc3)O[C@H](CO)[C@@H]1O2 | i | nt | -2.0 | nt | nt | 5 | 5 | 0.1 | nt
C[C@H](O)C#Cc1cnc2c(c1)C(=O)N([C@H](C)CO)C[C@H](C)[C@@H](CN(C)C(=O)c1ccccc1F)O2 | i | nt | -1.1 | nt | nt | 0 | 9 | -0.3 | nt
O=c1n(-c2ccc(Br)cc2)cnn1-c1ncccc1[N+](=O)[O-] | i | -1% | -2.0 | 0.65 | -53 | 16 | 10 | -4.1 | -5.7
CC(C)C[C@@H]1Cc2[nH]c(=S)[nH]c(=O)c2[C@H](CCc2ccccc2)O1 | i | nt | -2.0 | nt | nt | 12 | 8 | -0.5 | 0.1
COc1ccccc1-c1c(C(F)(F)F)oc2cc(OC(=O)c3ccc([N+](=O)[O-])cc3)ccc2c1=O | i | nt | 2.6 | 0.71 | -6 | -30 | -21 | -22 | -1.2
Cc1cc2ncc(-c3ccc(Cl)cc3)cn2n1 | i | 0% | -0.8 | 0.67 | -5 | 22 | 2 | 0.9 | 2.8
CCn1cc(C(=O)NN)c(=O)c2cc(F)c(N3CCN(C)CC3)cc21 | i | -3% | 2.8 | 0.55 | 7 | -30 | -42 | -0.1 | 1.0
COc1ccc(C(=O)NCC(c2cccs2)N2CCc3ccccc32)c(OC)c1 (configuration not stated) | i | 2% | 4.9 | 0.63 | 13 | 5 | 12 | 1.7 | -0.9
C=CCn1cc(/C=C2\SC(N3CCOCC3)=NC2=O)c2ccccc21 | i | -3% | 5.9 | 0.66 | 52 | 9 | -23 | -4.8 | -0.3
O=C(O)Cc1ccc(NC(=O)Nc2cccc3ccccc23)cc1 | i | -5% | -0.7 | 0.73 | -54 | 0 | 1 | -3.8 | -1.3
CCc1ccc(CNc2ccc3c(c2)ncn3C)cc1 | i | 5% | 10 | 0.64 | nt | 2 | -6 | 22 | 0.6
COc1ccc(S(=O)(=O)NC(C)C(=O)NCc2ccccn2)cc1Cl (configuration not stated) | i | nt | -0.3 | 0.64 | 0 | 2 | 5 | -0.8 | 0.7
C[C@@H]1CN([C@@H](C)CO)C(=O)c2cc(C#C[C@@H](C)O)cnc2O[C@H]1CN(C)CC1CCOCC1 | i | nt | -2.0 | nt | nt | 2 | 1 | -3.1 | nt
COc1ccc(NC(=O)C#Cc2ccccc2)cc1OC | i | nt | 4.4 | 0.69 | -8 | -10 | 0 | 7.9 | 7.1
O=C(CCCCCN1C(=O)CCC1=O)Nc1ccc(Br)cc1F | nt | 1% | nt | 0.74 | -1 | nt | nt | nt | -1.6
O=C(CNC(=O)c1ccccc1Br)N/N=C/c1ccc(O)cc1 | i | -2% | 2.9 | nt | 99* | 6 | 8 | 0.2 | -0.1

Four entries drawn at random from those above, as already listed:
SMILES | FGF22 binding | Vif A3G | AF4-AF9 inh | Ecoli growth | ALR inh | rRNA inh HTS | rRNA inh HTS OD600 | rRNA inh HTS RFP | HNF4A DNA FP
CC(=O)Nc1ccc(NC(=O)c2cc(=O)c3ccccc3o2)cc1 | i | nt | 0.0 | 0.69 | -28 | -9 | 2 | -3.4 | 4.0
O=C(/C=C\c1cn(-c2ccccc2)nc1-c1ccc2c(c1)OCCO2)N1CCOCC1 | nt | -9% | nt | 0.72 | -2 | nt | nt | nt | 0.8
CC(C)C[C@@H]1Cc2[nH]c(=S)[nH]c(=O)c2[C@H](CCc2ccccc2)O1 | i | nt | -2.0 | nt | nt | 12 | 8 | -0.5 | 0.1
O=C(CNC(=O)c1ccccc1Br)N/N=C/c1ccc(O)cc1 | i | -2% | 2.9 | nt | 99* | 6 | 8 | 0.2 | -0.1

Other entries follow:
SMILES | FGF22 binding | Vif A3G | AF4-AF9 inh | Ecoli growth | ALR inh | rRNA inh HTS | rRNA inh HTS OD600 | rRNA inh HTS RFP | HNF4A DNA FP
Cc1ccc(Cn2c(=O)n(-c3ccccc3)c(=O)c3ccc(C(=O)NCc4ccco4)cc32)cc1 | i | -6% | -1.2 | 0.74 | 2 | 6 | 12 | 1.5 | -3.8
COc1ccc(C(=O)N2CCCC(CO)C2)cc1OC1CCN(C(C)C)CC1 (configuration not stated) | i | 4% | 2.2 | nt | nt | 1 | 0 | -3.2 | -2.1
COc1ccc(CCNC(=O)COc2ccc([N+](=O)[O-])cc2)cc1 | i | 22% | -1.5 | 0.67 | 1 | -2 | 2 | 3.9 | 0.9
COc1ccc(O)c(/C=N/NS(=O)(=O)c2ccc(C)cc2)c1 | i | nt | -5.3 | nt | 34 | -7 | -12 | -2.2 | 3.4
COc1ccc(-c2[nH]ncc2-c2nc(C)cs2)c(O)c1 | i | -4% | -5.3 | 0.68 | -26 | 4 | 2 | 1.8 | -4.7
C#Cc1ccc([C@@H]2C=C(C(=O)OCC=C)O[C@H](OCCCCO)C2)cc1 | i | 20% | 0.0 | nt | nt | 9 | 2 | 6.0 | -4.1
C[C@H](CO)N1C[C@H](C)[C@@H](CN(C)Cc2ccc(-c3ccccc3)cc2)Oc2ccc(NC(=O)Cn3cnnn3)cc2C1=O | i | 8% | 6.1&5.8 | 0.66 | nt | -7&1 | -6&1 | 2.7&1.4 | -0.6
O=C(OCC(=O)N1CCC(Cc2ccccc2)CC1)c1cncc(Br)c1 | i | nt | -6.4 | 0.71 | -1 | -38 | -67 | -11 | 4.2
